T cruzi inh = T. cruzi replication inhibition; T. cruzi beta-gal in NIH3T3, luminescence, 90 h; inhibition, % (concentration not given with the values); 1.4% of 300,000 active; AID 1885;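 active = mean inhibition across valid replicates above about 55%, limit read from the data; inconclusive = mean below that limit but half or more replicates reach it; inactive = mean below it, under half of replicates reach it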;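 note: signal also drops with host cell toxicity which is not excluded here; 0% = plate median of DMSO wells and 100% = zero luminescence signal; higher percent means less beta-gal luminescence so fewer parasites; stock transfer was 50 nL into about 50 µL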
A1 inh = inhibitors of the anti-apoptotic protein A1, read as caspase activation | MEF A1-2A-BIM cells, Caspase-Glo 3/7 luminescence, 3 h; percent of clofoctol response, vehicle zero | caspase activation, % (no concentration beside the values) | 0.066% of 330,000 active | AID 2462;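 active = over half of replicate activation scores above 10%, or exactly half above 10 with the replicate mean above 10; inconclusive = replicate mean below 10 yet half the replicates above 10; inactive = over half of replicates below 10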;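 note: wells of about 30 µL received 50 nL stock; many hits fall short of the cut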
Beta cell apopt = beta cell apoptosis inhibition; 0.8% of 300,000 active; INS-1E cytokine-induced death, ATP luminescence, 48 h; percent of positive-control rescue, neutral wells zero; protection from apoptosis, % (no concentration beside the values);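 active = all replicates at 75% or more, or half of them and the mean; inconclusive = half reach 75% but not the mean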;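 note: 0% = cytokine-treated negative control wells and 100% = positive control rescue; higher means more ATP so stronger rescue from cytokine killing; wells of about 40 µL received 100 nL stock; the first replicate is given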
LANA-H2B inh = blocks KSHV LANA binding to histone H2A/H2B; Q9QR71; cell-free LANA-H2A/H2B peptide, fluorescence polarization; inhibition, % (test concentration not listed); 0.6% of 320,000 active; in the data active = inhibition mostly above about 10%, no sharp cut-off; inactive = mostly below about 6.7%;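 note: stock transfer was 7.5 nL into about 10 µL; 0% = median of vehicle wells and 100% = median of positive control wells; one replicate is shown; the record names a cut of 25% in any replicate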
Target sequence (Q9QR71 whole entry, looked up): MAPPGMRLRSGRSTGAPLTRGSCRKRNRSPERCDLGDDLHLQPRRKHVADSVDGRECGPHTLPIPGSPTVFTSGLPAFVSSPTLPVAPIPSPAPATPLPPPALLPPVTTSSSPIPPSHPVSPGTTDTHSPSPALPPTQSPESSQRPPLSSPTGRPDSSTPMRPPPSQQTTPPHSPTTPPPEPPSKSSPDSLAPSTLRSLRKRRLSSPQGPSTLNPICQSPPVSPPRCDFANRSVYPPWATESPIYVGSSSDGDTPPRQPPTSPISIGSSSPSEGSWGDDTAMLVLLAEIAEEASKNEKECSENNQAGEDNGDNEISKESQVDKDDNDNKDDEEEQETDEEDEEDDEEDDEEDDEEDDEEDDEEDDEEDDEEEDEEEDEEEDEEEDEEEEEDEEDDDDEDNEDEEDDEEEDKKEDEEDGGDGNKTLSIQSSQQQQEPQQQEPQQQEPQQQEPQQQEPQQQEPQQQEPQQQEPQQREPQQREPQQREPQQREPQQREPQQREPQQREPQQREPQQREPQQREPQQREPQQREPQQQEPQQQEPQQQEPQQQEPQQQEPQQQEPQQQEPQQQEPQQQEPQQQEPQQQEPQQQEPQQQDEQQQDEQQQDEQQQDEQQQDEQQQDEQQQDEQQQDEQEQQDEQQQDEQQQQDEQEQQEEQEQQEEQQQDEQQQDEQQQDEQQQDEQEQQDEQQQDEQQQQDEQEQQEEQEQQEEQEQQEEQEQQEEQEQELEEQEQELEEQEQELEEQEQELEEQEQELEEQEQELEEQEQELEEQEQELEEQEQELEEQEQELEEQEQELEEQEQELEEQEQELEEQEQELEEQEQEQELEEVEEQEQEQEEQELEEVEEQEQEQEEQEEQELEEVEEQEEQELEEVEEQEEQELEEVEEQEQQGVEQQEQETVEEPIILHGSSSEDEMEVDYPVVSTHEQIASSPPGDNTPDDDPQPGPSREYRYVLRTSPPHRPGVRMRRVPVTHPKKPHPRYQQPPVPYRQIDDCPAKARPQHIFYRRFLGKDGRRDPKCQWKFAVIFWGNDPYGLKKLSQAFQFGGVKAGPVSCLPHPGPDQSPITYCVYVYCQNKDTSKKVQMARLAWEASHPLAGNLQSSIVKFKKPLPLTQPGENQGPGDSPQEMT
Calb FLC = affects C. albicans growth with fluconazole; C. albicans CaCi-2 (fluconazole-resistant clinical isolate) + fluconazole, Alamar Blue growth, 48 h; growth inhibition, % (no concentration beside the values); 0.57% of 300,000 active;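 active = most replicates above 75%; inconclusive = exactly half above 75%; inactive = most below 75%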;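 note: all wells also contain fluconazole at 8 µg/ml as a sub-toxic cotreatment; 0% = median of DMSO wells and 100% = median of geldanamycin control wells; wells of about 8 µL received 7.5 nL stock; the first replicate is given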
RanGTP-Imp inh = disruptors of Ran-importin-beta complex formation – biochemical, FRET, CFP-Ran, YFP-importin-beta, homogeneous, primary screen; cell-free CFP-Ran/YFP-importin-beta FRET ratio; inhibition, % (no concentration beside the values); 1.1% of 300,000 active;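 active = most replicates above 15%; inconclusive = exactly half above 15%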;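 note: 0% = DMSO wells and 100% = Ran loaded with GDP instead of GTP; wells of about 40 µL received 100 nL stock; the first replicate is given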
Vif TR-FRET = HIV-1 Vif–A3G interaction blockers – biochemical, TR-FRET, GST-Vif 1-94, biotin-A3G peptide, dose response retest, primary screen (AID 1117319); TR-FRET GST-Vif / biotin-A3G peptide binding; higher % means a stronger effect; test concentration not given here; strong numbers were not always called active; inhibition, %; hits with a dose series show IC50 in µM; 0.57% of 260,000 active;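 active = above the screen mean plus three standard deviations and confirmed in dose response; inconclusive = results disagree or hit not tested in dose response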;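 note: Vif residues 1-94 fused to GST binding biotinylated APOBEC3G peptide 110-148; 0% = full assay without inhibitor and 100% = GST in place of GST-Vif; retest series ran down from 100 µM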
MLL AF4-AF9 inh = inhibitors of human MLL-AF4/AF9 interaction. AlphaScreen, biotin-AF4 peptide binding to FLAG-AF9. inhibition, % at 10 µM. 0.47% of 350,000 active. AID 651704;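 active = every replicate reaching a set inhibition limit, whatever the replicate mean, cut at about 25% in these data; inconclusive = mean inhibition reaches that limit but some replicates miss it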;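 note: 0% = plate neutral control median and 100% = total signal loss; the record names both 10 and 1 µM as test concentration; the first replicate is given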
* hit, by the source's call; & = joins results of further samples.

Results for NC(=O)NC(CC(=O)NCCCc1ccccc1)c1ccc(Cl)cc1 (stereo not drawn) ?
T cruzi inh: 3; A1 inh: -0.7; Beta cell apopt: -13; LANA-H2B inh: 3.0; Calb FLC: -2; RanGTP-Imp inh: -2.5; Vif TR-FRET: -12%; MLL AF4-AF9 inh: -0.1

How did Cc1ccc(S(=O)(=O)N/N=C2/CCCCC2C2CCCCC2)cc1[N+](=O)[O-] (stereo not drawn) do in these assays?
T cruzi inh: -27; A1 inh: -1.4; Beta cell apopt: -5; LANA-H2B inh: -2.2; Calb FLC: 24; RanGTP-Imp inh: 2.7; Vif TR-FRET: 19%

How did CC1CC(C)CN(CCCNC(=O)c2ccc3c(c2)N(Cc2ccccc2)C(=O)c2ccccc2S3=O)C1 (stereo not drawn) do in these assays?
T cruzi inh: 28; A1 inh: -0.2; Beta cell apopt: 7; LANA-H2B inh: 1.1; Calb FLC: 5; RanGTP-Imp inh: inconclusive; MLL AF4-AF9 inh: 9.2

How did COc1ccccc1NC(=O)Nc1ccc(C)cn1 do in these assays?
T cruzi inh: -7; A1 inh: 0.6; Beta cell apopt: -3; LANA-H2B inh: 3.1; Calb FLC: 3; RanGTP-Imp inh: -5.5; Vif TR-FRET: 5%; MLL AF4-AF9 inh: 0.4

What do the screens show for `CCOc1ccc2nc(NC(=O)CC3Oc4ccccc4NC3=O)sc2c1` (stereo not drawn)?
T cruzi inh: 6; A1 inh: 0.2; Beta cell apopt: 9; LANA-H2B inh: 0.7; Calb FLC: 4; RanGTP-Imp inh: inconclusive; Vif TR-FRET: 1%; MLL AF4-AF9 inh: 4.6

How did COC(=O)c1sccc1Oc1c(Cl)cccc1[N+](=O)[O-] do in these assays?
T cruzi inh: -7; A1 inh: 2.8; Beta cell apopt: -11; LANA-H2B inh: -2.7; Calb FLC: 9; RanGTP-Imp inh: -1.1; Vif TR-FRET: 10%; MLL AF4-AF9 inh: 1.4

Results for O=C1NC2(CCCCC2)C(=O)N1c1ccc(Cl)cc1 ?
T cruzi inh: -23; A1 inh: -0.3; LANA-H2B inh: -4.0; Calb FLC: 13; RanGTP-Imp inh: 0.6; Vif TR-FRET: 1%; MLL AF4-AF9 inh: -1.5

What do the screens show for `COc1ccccc1OCC(O)CN1CCN(CC(=O)Nc2c(C)cccc2C)CC1` (stereo not drawn)?
T cruzi inh: -5; A1 inh: -0.1&0.3; Beta cell apopt: -5; LANA-H2B inh: -2.0&-0.6; RanGTP-Imp inh: 3.5; MLL AF4-AF9 inh: -1.1&-2.2

How did NS(=O)(=O)c1ccc(CNC(=O)/C=C/c2c(F)cccc2Cl)cc1 do in these assays?
T cruzi inh: -5; A1 inh: -0.1; Beta cell apopt: 4; LANA-H2B inh: -0.6; Calb FLC: -1; RanGTP-Imp inh: -1.5; Vif TR-FRET: -4%; MLL AF4-AF9 inh: 0.1

How did CCC(Sc1nncn1C)C(=O)Nc1nnc(-c2ccc(Cl)cc2)s1 (stereo not drawn) do in these assays?
T cruzi inh: 9; A1 inh: -0.1; Beta cell apopt: -7; LANA-H2B inh: 5.6; Calb FLC: 2; RanGTP-Imp inh: 0.6; Vif TR-FRET: -3%; MLL AF4-AF9 inh: -3.6

How did O=C(CSc1nncs1)NNC(=O)c1ccccc1Br do in these assays?
A1 inh: 0.9; Beta cell apopt: -3; LANA-H2B inh: -3.1; Vif TR-FRET: 5%; MLL AF4-AF9 inh: -0.9

What do the screens show for `CCC(/C=N/NC(=O)C1COc2ccccc2O1)CC` (stereo not drawn)?
T cruzi inh: -10; A1 inh: 0.0; Beta cell apopt: -6; LANA-H2B inh: 0.9; Calb FLC: 3; RanGTP-Imp inh: inconclusive; Vif TR-FRET: 15%

Results for Cc1ccc(NS(=O)(=O)c2ccc3[nH]c(=O)oc3c2)c(C)c1 ?
T cruzi inh: -11; A1 inh: -1.1; Beta cell apopt: -11; LANA-H2B inh: 6.9; Calb FLC: -6; RanGTP-Imp inh: -0.2; MLL AF4-AF9 inh: -0.9

What do the screens show for `Cc1ccc(S(=O)(=O)c2nc(-c3cccs3)oc2N2CCC(C(N)=O)CC2)cc1`?
A1 inh: -0.4; Beta cell apopt: -2; LANA-H2B inh: -4.6; Vif TR-FRET: 7%; MLL AF4-AF9 inh: -0.5

What do the screens show for `O=C(O)c1cnn2c(C(F)(F)F)cc(-c3ccccc3)nc12`?
T cruzi inh: -10; A1 inh: -0.3; Beta cell apopt: -2; LANA-H2B inh: 0.3; Calb FLC: -8; RanGTP-Imp inh: -4.3; Vif TR-FRET: 6%

How did O=C(NC1=NCCS1)c1cc(-c2cccs2)nc2ccccc12 do in these assays?
T cruzi inh: -21; A1 inh: -0.7; Beta cell apopt: -5; LANA-H2B inh: 3.8; Calb FLC: 18; RanGTP-Imp inh: 5.0; Vif TR-FRET: -6%; MLL AF4-AF9 inh: 12

How did O=C(CCC(=O)Nc1ccc(Br)cc1)N/N=C/c1ccccc1O do in these assays?
T cruzi inh: 38; A1 inh: 0.0; Beta cell apopt: 56; LANA-H2B inh: -0.3; RanGTP-Imp inh: 1.9; Vif TR-FRET: -1%; MLL AF4-AF9 inh: -1.7

Results for CCc1ccc(NC(=O)CSc2nnc(C)c(=O)n2N)cc1 ?
T cruzi inh: -8; A1 inh: 0.6; Beta cell apopt: -6; LANA-H2B inh: -1.0; Calb FLC: 4; RanGTP-Imp inh: 0.9; MLL AF4-AF9 inh: -0.2

What do the screens show for `CCNC(=O)CN(c1ccc(C)cc1)S(=O)(=O)c1ccccc1`?
T cruzi inh: -9; A1 inh: -2.0; Beta cell apopt: -4; LANA-H2B inh: -4.9; Calb FLC: 3; RanGTP-Imp inh: -0.7; Vif TR-FRET: 3%

How did O=c1[nH]c2cc(NCCO)c([N+](=O)[O-])cc2[nH]1 do in these assays?
T cruzi inh: -3; A1 inh: 0.0; Beta cell apopt: 0; LANA-H2B inh: 6.0; Calb FLC: -10; RanGTP-Imp inh: -3.1; Vif TR-FRET: -13%; MLL AF4-AF9 inh: 1.1

How did CCC(=O)Nc1nc(C)c(-c2csc(Nc3ccccn3)n2)s1 do in these assays?
T cruzi inh: 12; A1 inh: -2.2; Beta cell apopt: -18; LANA-H2B inh: -1.0; Calb FLC: 0; RanGTP-Imp inh: -1.0; Vif TR-FRET: 10%; MLL AF4-AF9 inh: 6.0

Results for CCCNC(=O)c1cc(SC)ccc1Cl ?
T cruzi inh: -13; A1 inh: -0.1; Beta cell apopt: -2; LANA-H2B inh: 3.1; Calb FLC: -11; RanGTP-Imp inh: -2.6; Vif TR-FRET: 16%

How did Cc1ccc(C)c(NC(=O)CN(C)S(=O)(=O)c2ccc(F)cc2)c1 do in these assays?
T cruzi inh: -15; A1 inh: -0.1; Beta cell apopt: -1; LANA-H2B inh: -0.3; Calb FLC: inconclusive; RanGTP-Imp inh: -0.1; Vif TR-FRET: -1%

How did CC(NC(=O)c1sc2ccccc2c1Cl)C1CCCO1 (stereo not drawn) do in these assays?
T cruzi inh: 13; A1 inh: -1.0; Beta cell apopt: -4; LANA-H2B inh: -1.4; Calb FLC: -24; RanGTP-Imp inh: 1.5; Vif TR-FRET: -2%

How did O=C(NNC(=O)c1cc(OCC(F)(F)F)ccc1OCC(F)(F)F)c1ccc(Cl)c(Cl)c1 do in these assays?
T cruzi inh: 15; A1 inh: 2.1; Beta cell apopt: -3; LANA-H2B inh: 3.8; Calb FLC: 4; RanGTP-Imp inh: 6.7; Vif TR-FRET: 1%&-4%

Results for CC(=O)N/C(=C/c1ccc(OC(F)F)cc1)C(=O)O ?
T cruzi inh: -1; A1 inh: -0.8; Beta cell apopt: 10; LANA-H2B inh: -4.9; Calb FLC: -3; RanGTP-Imp inh: 0.9; Vif TR-FRET: -3%

How did O=C(COc1cccnc1[N+](=O)[O-])Nc1ccc2c(c1)OC(F)(F)O2 do in these assays?
T cruzi inh: -9; A1 inh: 0.4; LANA-H2B inh: 1.5; Calb FLC: 19; RanGTP-Imp inh: 2.0; Vif TR-FRET: 3%; MLL AF4-AF9 inh: -0.8

How did CCOC(=O)c1ccc(NC(=O)C(=O)NCC2CCCO2)cc1 (stereo not drawn) do in these assays?
T cruzi inh: -1; A1 inh: 0.1; Beta cell apopt: -4; LANA-H2B inh: -1.0; Calb FLC: 5; RanGTP-Imp inh: 4.9; Vif TR-FRET: 18%

Results for O=c1c2ccccc2nnn1CSc1nnc(Nc2ccccc2)s1 ?
T cruzi inh: 2; A1 inh: 1.0; Beta cell apopt: 1; LANA-H2B inh: -0.7; Calb FLC: 6; RanGTP-Imp inh: 1.1; Vif TR-FRET: 1%

What do the screens show for `COC(=O)c1ccc(NC(=O)CN2CCN(c3ccccc3C)CC2)cc1`?
T cruzi inh: 7; A1 inh: 0.3; Beta cell apopt: -7; LANA-H2B inh: -3.6; Calb FLC: 9; RanGTP-Imp inh: 5.0; Vif TR-FRET: 6%; MLL AF4-AF9 inh: -0.7

Results for COc1cc(C)c(NC(=S)Nc2ccc(Cl)c(Cl)c2)cc1OC ?
T cruzi inh: 10; A1 inh: -0.4; Beta cell apopt: -6; LANA-H2B inh: -1.8; Calb FLC: -45; RanGTP-Imp inh: 0.9; MLL AF4-AF9 inh: 5.2

What do the screens show for `Cc1ccnc(SCCn2c(N3CCC(C)CC3)nc3c2c(=O)n(C)c(=O)n3C)n1`?
T cruzi inh: 10; A1 inh: -1.4; Beta cell apopt: 4; LANA-H2B inh: -0.1; Calb FLC: -4; RanGTP-Imp inh: 0.8; Vif TR-FRET: -12%

How did CN(C)c1cccc(C(=O)OCCNC(=O)c2cccc(S(=O)(=O)N3CCOCC3)c2)c1 do in these assays?
T cruzi inh: 0; A1 inh: 0.0; Beta cell apopt: -4; LANA-H2B inh: -0.3; Calb FLC: 4; RanGTP-Imp inh: 0.3; Vif TR-FRET: -9%; MLL AF4-AF9 inh: -9.6

Results for COC(=O)CNC(=O)c1cccs1 ?
T cruzi inh: -3; A1 inh: 0.8; Beta cell apopt: -4; LANA-H2B inh: -4.5; Calb FLC: -4; RanGTP-Imp inh: 3.5; Vif TR-FRET: 24%

What do the screens show for `CC1(C)Cc2cccc(OCC(=O)NCc3cccs3)c2O1`?
T cruzi inh: 2; A1 inh: -0.8; LANA-H2B inh: 4.3; Calb FLC: 2; RanGTP-Imp inh: 0.4; Vif TR-FRET: 6%; MLL AF4-AF9 inh: -0.5

Results for N#CN1CCC(NS(=O)(=O)c2ccc(C(F)(F)F)cc2)CC1 ?
A1 inh: -0.5; Beta cell apopt: -1; LANA-H2B inh: -1.7; MLL AF4-AF9 inh: -0.9

How did O=C(NC1CCCCC1)c1ccc(Cn2cc(Br)cn2)o1 do in these assays?
T cruzi inh: 15; A1 inh: 0.2; Beta cell apopt: 3; LANA-H2B inh: -2.0; Calb FLC: -3; RanGTP-Imp inh: -0.8; Vif TR-FRET: -3%

What do the screens show for `Cc1cnc(C(=O)OCC(=O)NCCc2ccccc2)cn1`?
T cruzi inh: 3; A1 inh: -0.2; Beta cell apopt: 2; LANA-H2B inh: 2.6; Calb FLC: -12; RanGTP-Imp inh: 0.6; Vif TR-FRET: -1%

What do the screens show for `CCOC(=O)c1cc(C#N)c(SCC(N)=O)[nH]c1=O`?
T cruzi inh: -5; A1 inh: -0.1; Beta cell apopt: -5; LANA-H2B inh: 0.5; Calb FLC: 3; RanGTP-Imp inh: 7.9; MLL AF4-AF9 inh: -19

From PubChem BioAssay
